Sa RN4220 lethal = growth inhibition of S. aureus RN4220, primary screen, OD600; 16 h; inhibition, % (test concentration not listed); 330,000 compounds, 0.33% hits;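 active = z-score of -3 or lower and OD600 up to 0.18 on both plates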;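 also: plate controls were untreated cells for no effect and reference antibiotic for full effect; stock transfer was 100 nL into about 80 µL; one replicate is shown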
Autofluor counter = compound fluorescence in toxin protease inhibitor counterscreen; compound autofluorescence counterscreen, microsphere flow cytometry; active compounds read high; fluorescence intensity (no concentration beside the values); 360,000 compounds, 3.1% hits; AID 624483;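 active = at least 3 SD above the mean of all compounds, about 16000 in these data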;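 also: 100 nL of 1 mM stock went into each well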
PrP UTR inh = inhibition of PrP 5' UTR reporter expression. cell-based PrP 5' UTR mRNA reporter, plate reader. inhibition, % (test concentration not listed). 340,000 compounds, 0.35% hits. AID 488862, 2010;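 active = every replicate at 50% or more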;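 also: 0 = median of the neutral control wells; tested in H4 reporter cells; numbers are from one replicate; inactives centre near -14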
ugtP null kill = growth inhibition of ugtP-null S. aureus, primary screen, RN4220 ugtP deletion, OD600; 16 h; some inactives read as strong as hits; AID 1259309, 2017; growth inhibition, % (concentration not given with the values); 330,000 compounds, 0.54% hits;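 active = z-score under -3 and OD600 up to 0.15 on both plates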;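 also: plate controls were untreated wells for no effect and antibiotic for full effect; wells of about 80 µL received 100 nL stock; the first replicate is given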
BJeLR viability = MLPCN primary cell-based screen for lethality selective to Ras in HRASV12 cells; BJeLR (HRASV12) viability, CellTiter-Glo ATP luminescence, 48 h; reference of the scale not given here; inhibition, % (concentration not given with the values); 300,000 compounds, 0.17% hits; AID 1554, 2009;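 active = replicate mean above 50%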;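 also: 50 nL library stock added to about 25 µL; numbers are from one replicate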
Mtb hypoxia inh = PubChem AID 1159583; 300,000 compounds, 0.1% hits; M. tuberculosis hypoxia-regulated fluorescent reporter, fluorescence; fluorescence inhibition, % (test concentration not listed);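 active = 35 to 45% if threefold the growth effect, above 45% if 1.5-fold the growth effect; inactive = the rest, general growth blockers included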;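 also: wells of about 50 µL received 100 nL stock; 0% = vehicle wells and 100% = reference inhibitor wells; whole bacteria with a GFP reporter of the hypoxia response; strong numbers were not always called active; many hits fall short of the cut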
Mtb hypoxia inh growth = further read-out of Mtb hypoxia inh, marked with its call; growth inhibition, %; measured here: M. tuberculosis growth (absorbance);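 0% = vehicle and 100% = reference antibiotic; read after six days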
* hit, by the source's call; · = no result given.

The line under a structure holds: Sa RN4220 lethal, Autofluor counter, PrP UTR inh, ugtP null kill, BJeLR viability, Mtb hypoxia inh, Mtb hypoxia inh growth
COc1ccc2c(c1)C(C1=C(O)CC(C)(C)CC1=O)C1=C(CC(C)(C)CC1=O)O2 (configuration not stated)
    4.9, 24480*, -32, -2, -2, 10, 10
C=Cc1ccc(C(=O)N2CCCC(Nc3ccc4c(c3)OCCO4)C2)cc1 (configuration not stated)
    1.6, 5409, -4, 0, -8, 4, 11
Cn1c(N)c(C(=O)COC(=O)CNC(=O)c2ccc(Cl)cc2Cl)c(=O)n(C)c1=O
    4.8, 3942, -27, 6, ·, 9, 8
O=C(CSc1nnc(-c2ccc(Br)cc2)n1CCc1ccccc1)NC1CCS(=O)(=O)C1 (configuration not stated)
    6.5, 2768, -42, 0, 1, 8, -4
O=C(c1ccc(OC2CCN(C(=O)C3CC3)CC2)cc1)N(CCO)Cc1ccccc1
    4.3, 4599, -22, 0, 1, -2, 4
Oc1ccc(C=NNC(=S)NCC2CCCO2)cc1 (configuration not stated)
    1.8, ·, ·, 3, ·, -6, 8
COc1ccc2c(c1)-c1c(sn(-c3ccccc3)c1=S)C(C)(C)N2
    12, 2550, -7, 81, -2, 8, -3
COC(=O)c1oc2ccc(Br)cc2c1NC(=O)CCCN1C(=O)c2ccccc2C1=O
    -2.4, 4491, 57*, -5, -6, -1, 1
COc1cccc(Cn2nnc(C(=O)Nc3ccc(C)cc3)c2N)c1
    1.2, 6105, -49, -8, -1, ·, ·
CC1(C)C2CCC1(C)C(OC(=O)CC(=O)O)C2 (configuration not stated)
    -1.8, ·, ·, 0, -6, 6, 4
Cc1cccc2cc(CN(CCN3CCOCC3)C(=O)Nc3ccccc3F)c(=O)[nH]c12
    6.5, 2525, -5, 9, -25, 11, 3
CON/C=C(\C=Nc1ccc(C(F)(F)F)cc1)c1ncc(C(F)(F)F)cc1Cl
    3.2, 5846, -21, 81, 7, 6, 9
c1ccc(COc2nsnc2N2CCOCC2)cc1
    2.9, 4192, -10, 11, 6, 6, 7
COc1cc(C2=NOC(C(=O)N3CCCCCC3)C2)cc(OC)c1OC (configuration not stated)
    7.2, 15348, 1, 10, -6, 5, 3
Cc1ccc(N/C=C2/Sc3ccccc3NC2=O)cc1
    -0.5, 2545, -57, 3, 1, 14, 7
CN(C)C(=O)c1ccc(-c2n[nH]c(=O)c3ccccc23)cc1
    3.8, 3345, -4, 5, 3, 10, 5
COCc1cc(C)nc2sc(C(=O)Nc3ccc(OC)cc3)c(N)c12
    3.1, 4255, -19, 11, 2, 20, 12
CCOC(=O)C1=C(COC(=O)c2cccc(N(C)C)c2)NC(=O)NC1C (configuration not stated)
    2.1, 4775, -24, 6, -6, -7, -4
CCCc1nn2c(=O)cc(CSCC(=O)Nc3nnc(CC)s3)nc2s1
    4.7, 4057, -12, 9, 24, 6, 0
CNC(=O)NC(=O)COC(=O)CCCSc1nc2ccccc2s1
    3.2, 2502, 1, -6, -3, 4, -7

Pulled by structure from above, four records:
The line under a structure holds: Sa RN4220 lethal, Autofluor counter, PrP UTR inh, ugtP null kill, BJeLR viability, Mtb hypoxia inh, Mtb hypoxia inh growth
COc1cccc(Cn2nnc(C(=O)Nc3ccc(C)cc3)c2N)c1
    1.2, 6105, -49, -8, -1, ·, ·
c1ccc(COc2nsnc2N2CCOCC2)cc1
    2.9, 4192, -10, 11, 6, 6, 7
CON/C=C(\C=Nc1ccc(C(F)(F)F)cc1)c1ncc(C(F)(F)F)cc1Cl
    3.2, 5846, -21, 81, 7, 6, 9
Cc1ccc(N/C=C2/Sc3ccccc3NC2=O)cc1
    -0.5, 2545, -57, 3, 1, 14, 7

Remaining list, next part.
The line under a structure holds: Sa RN4220 lethal, Autofluor counter, PrP UTR inh, ugtP null kill, BJeLR viability, Mtb hypoxia inh, Mtb hypoxia inh growth
O=C(NCCN1CCN(C(=O)c2cccs2)CC1)c1cccs1
    -2.0, 22034*, -1, -7, 5, -6, -4
COc1ccc(C2CC(c3cccs3)=NN2c2ccc(F)cc2)cc1OC (configuration not stated)
    -8.4, 4464, 8, 25, -3, 7, 12
O=c1c2ccccc2ccc2ccc(P(=O)(O)O)cc12
    0.3, 4085, -22, 2, ·, 8, 10
COc1ccc(/C=N/n2c(C)nc3c([nH]c4ccccc43)c2=O)cc1CN1CCCC(C)(C)C1
    ·, 4895, -17, ·, 2, ·, ·
COc1ccc(CNc2ccc(C(=O)O)cc2)cc1
    -1.5, 5703, -16, -2, 0, 4, 19
CN(CC(=O)NCc1ccccc1Cl)S(=O)(=O)c1cccs1
    3.1, 3635, -9, 5, -6, -2, 2
CC(=O)C(Cc1ccccc1)NC(=O)CN1CCN(Cc2ccccc2)CC1 (configuration not stated)
    -0.1, 4828, -8, 2, 3, -7, 6
COc1ccc(N2CC(NS(=O)(=O)c3cccnc3)CC2=O)cc1OC (configuration not stated)
    2.1, 6389, 8, -2, 3, -1, -4
CCC(C)Oc1nc(C)cc(C)c1S(=O)(=O)c1ccccc1C (configuration not stated)
    13, 4342, -12, -2, -2, ·, ·
O=C(CCCN1C(=O)/C(=C/c2cccc(Br)c2)SC1=S)NCCCN1CCOCC1
    1.2, 5156, -7, 10, 77*, 9, 8
CN1CCCN(Cc2nc(-c3ccc(Cl)cc3)no2)CC1
    2.3, 3801, -14, 2, 11, 11, 2
C=Cc1ccc(Cn2nc(-c3ccc(C)cc3)ccc2=O)cc1
    -0.3, 4322, -6, 9, -2, 0, -3
COc1ccccc1-n1cnc2cc(NCc3ccco3)ccc21
    ·, 14788, 41, ·, 14, ·, ·
Cc1ccn2c(C(=O)N/N=C\c3ccccc3[N+](=O)[O-])c(C)nc2c1
    ·, 8536, -2, ·, 0, ·, ·
CC(C)C[C@@H](C(=O)NC1CCN(Cc2ccccc2)CC1)N1C(=O)N2CCc3c([nH]c4ccccc34)[C@@]2(C)C1=O
    -0.4, 8255, -7, 7, -12, ·, ·
Cc1nc2ccccn2c1C(=O)CSc1cccc(Cl)c1
    5.1, 4894, -11, -5, 12, 13, 4
Cc1ccc(C(C)C)c2oc(=O)cc(-c3ccc(-c4ccc(C(F)(F)F)cc4)cc3)c12
    2.5, 3073, -2, 7, ·, -5, 3
COc1ccc(N2C(=O)CC(N3CCC(C(N)=O)CC3)C2=O)cc1 (configuration not stated)
    3.3, 11111, -12, 7, 6, 15, 4
CCOc1ccc2oc(C(=O)OCC(=O)N3CC(C)OC(C)C3)c(C)c2c1 (configuration not stated)
    -0.8, 3063, -18, 7, ·, -3, -12
CN(C)c1ccc(C=C2C(=O)NC(=S)NC2=O)cc1
    4.5, 3874, -9, -6, ·, 5, 1
COc1ccc(S(=O)(=O)NN=C2CCCC2)cc1
    1.2, 20396*, -23, 4, -10, 6, 2
O=c1c2cc3c(cc2[nH]c(=S)n1Cc1ccco1)OCO3
    -1.5, 10079, 12, -6, 6, -3, 10
CCn1c(COc2ccc(Cl)cc2)nnc1SCc1nc2ccccc2[nH]1
    -3.0, 11580, -19, -8, 0, 0, -4
Cc1cc(C)n(CCNC(=O)C2CCC(=O)N(CC3CCCCC3)C2)n1 (configuration not stated)
    2.4, 5392, 3, 7, -3, 16, 4
COc1ccc(Cl)cc1C(=O)NC(=S)Nc1nc(C)cc(C)n1
    4.1, 3490, -25, 14, -4, -2, 1
O=C(Nc1ccc2nc3n(c(=O)c2c1)CCCCC3)c1ccccc1[N+](=O)[O-]
    1.8, 4842, -31, 7, -6, 0, 4
O=C(O)c1ccc(C2Nc3ccccc3C(=O)N2Cc2ccccc2)cc1 (configuration not stated)
    0.2, 5181, 6, 20, -2, 4, 6
Cc1nc2sc(C)c(C)c2c(=O)[nH]1
    3.3, 8919, -16, -1, -10, 3, 2
CN(C(=O)COC(=O)c1ccc(Cl)nc1)C1CCS(=O)(=O)C1 (configuration not stated)
    0.1, 4165, 68*, -2, 8, -8, 10
COc1ccc(/C(C)=N\NS(=O)(=O)c2ccccc2)cc1OC
    ·, 1901, -17, ·, -6, ·, ·
COc1nccnc1NS(=O)(=O)c1ccc(NC(=S)NC(=O)c2ccc(F)c(F)c2)cc1
    2.6, 2132, -18, 74, -2, 10, 12
Cc1cc2c(cc1S(=O)(=O)N(C)c1ccccc1)n(C)c(=O)n2C
    8.1, 3876, -40, -5, -16, 4, 11
O=C(CCCC(=O)N/N=C\c1ccccn1)N/N=C\c1ccccn1
    ·, 1922, -8, ·, 5, ·, ·
CCCCn1c(O)c(C=NCCN2CCCCC2)c(=O)[nH]c1=O
    3.4, 2516, -13, 0, -5, 3, 1
CCOc1ccc(C(=O)c2ccccc2C(=O)O)cc1OCC
    1.7, 4106, -23, -3, 1, -1, -1
C=CCOn1c(=O)c(-c2ccc(F)cc2)[n+]([O-])c2ccccc21
    -2.1, 3905, -11, 1, 17, 16, 7
O=C(CSc1c[nH]c2ccccc12)NCc1ccc2c(c1)OCO2
    22, 5749, 4, 15, -14, -1, -1
COc1cc2c(c(OC)c1OC)-c1ccc(OC)c(=O)cc1[C@@H](N(C)CC#CCO)CC2
    ·, 3696, 80*, ·, 45, ·, ·
CCN(CC)CCNC(=O)CCN1N=C(c2ccccc2)CCC1=O
    -0.6, 3824, -1, 4, 5, 1, -5
Cc1cc(C)cc(NC(=O)N2CCCN(c3ncccc3[N+](=O)[O-])CC2)c1
    1.7, 4528, -22, -6, 6, -1, 17
O=C(Nc1ccccc1)c1ccccc1Oc1ccc(C(F)(F)F)cc1[N+](=O)[O-]
    2.8, 2036, -1, -5, -3, 9, -2
CCCS(=O)(=O)c1c(S(=O)(=O)CCC)c2cnccn2c1C(=O)c1ccc(F)cc1
    2.7, 7777, 0, 9, -2, 0, 4
Cc1ccc(CN(C)C(=O)c2ccc(NS(=O)(=O)c3ccc4[nH]c(=O)[nH]c4c3)cc2)cc1
    -1.6, 6472, -8, 0, 1, 8, 13
Cc1cc(C(F)(F)F)cc(NNC(=O)NC(=O)c2ccccc2Cl)n1
    5.5, ·, ·, 16, 5, -1, -4
Cc1cc(O)c(C(C)C)cc1N=Cc1ccc([N+](=O)[O-])cc1
    3.6, 3762, -9, -7, ·, -7, 20
Cc1nc(N)nc(OCC(F)(F)C(F)F)c1Br
    4.0, 4124, -11, 4, -1, -1, 11

3 compounds from above with just Autofluor counter:
| compound | Autofluor counter |
| --- | --- |
| CCOC(=O)C1=C(COC(=O)c2cccc(N(C)C)c2)NC(=O)NC1C (configuration not stated) | 4775 |
| CCCc1nn2c(=O)cc(CSCC(=O)Nc3nnc(CC)s3)nc2s1 | 4057 |
| CNC(=O)NC(=O)COC(=O)CCCSc1nc2ccccc2s1 | 2502 |
